# Rango-impB inh – prevents formation of the Rango-importin beta complex. 340,000 tested, 0.031% active. Q14974. Potency, µM (top dose mostly 92.2 µM), inactives show at the highest dose inhibition of complex formation. Rango CFP/YFP FRET sensor + importin beta, 45 min. AID 540263; active = rising FRET ratio curve, often small or poorly fitted; inconclusive = mostly compound fluorescence or quenching in the first reads; inactive = flat curves in all reads;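 note: potency is the fitted concentration of half-maximal effect; 0% = DMSO wells and 100% = buffer wells lacking importin beta; nearly all actives have a fitted effect of over 15% in size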
#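 FRET biosensor Rango (snurportin 1 IBB between N-terminal EYFP and C-terminal Cerulean), 50 nM in PBS/1 mM DTT/0.02% Tween-20/0.1% BSA, preincubated 5 min RT with compound; 0.125 microM importin beta added, 45 min RT, CFP/YFP FRET ratio read.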
# Rango release inh – inhibitors of RanGTP-induced Rango-importin beta complex dissociation; O95149+P62826; Biochemical FRET Rango-importin beta, RanGTP-induced dissociation; Potency, µM (doses to about 46.1 µM), for inactives: at the highest dose activity change, negative = inhibition; 340,000 tested, 0.071% active; AID 540253; active means falling FRET ratio curve, often poorly fitted, with flat reads before Ran was added; inconclusive means other falling curves, or compound fluorescence or quenching; inactive means flat or rising ratio curve;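 note: potency is the fitted concentration of half-maximal effect; % of control where 0% means no effect; nearly all actives have a fitted effect of over 45% in size; -100% = wells without RanGTP and RCC1; the record marks most hits as doubtful in a second field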
#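 Rango FRET biosensor (snurportin-1 IBB flanked by N-terminal EYFP and C-terminal CFP10) at 0.1 uM, with 0.25 uM importin beta in PBS, 1mM DTT, 0.02% Tween-20, 0.1% BSA. 0.6 uM Ran, 2mM GTP and 0.2 uM RCC1 were then added for 45 min at room temperature. Inhibition read as loss of FRET rise.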
# miR-21 reporter – raises the signal of a miR-21 reporter; HeLa miR-21 FLuc reporter, luciferase, 48 h; Potency, µM (doses to about 38.3 µM), inactives show at the top dose reporter change, positive = more light; 340,000 tested, under 10 active; active = well fitted rising curve with a large enough effect; inconclusive = small, poorly fitted or top-dose-only effect; inactive = no such curve, though single readings can be large or run the other way;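 note: % of control where 0% means no effect; miR-21 action dims this reporter so a rising signal means less miR-21 action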
#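 HeLa cells endogenously expressing miR-21, stably carrying CMV-driven firefly luciferase with a downstream miR-21 binding site, 2000 cells/well. Titrations up to approximately 40 uM, 48 hours; luciferase luminescence read.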
# GLA inh pH 4.5 – blocks human alpha-galactosidase A at pH 4.5; purified enzyme, 4-MU-alpha-Gal fluorescence, pH 4.5; 230,000 tested, under 10 active; activity change, negative = inhibition, % at 105 µM; inconclusive = small, poorly fitted or top-dose-only inhibition, or a rising curve; inactive = flat fitted curve, though single readings scatter; no compound was filed as active;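 note: 0% = full activity with enzyme and -100% = basal without enzyme; dose as in the result columns while the protocol names 77 µM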
# Target sequence (P06280 whole entry, looked up): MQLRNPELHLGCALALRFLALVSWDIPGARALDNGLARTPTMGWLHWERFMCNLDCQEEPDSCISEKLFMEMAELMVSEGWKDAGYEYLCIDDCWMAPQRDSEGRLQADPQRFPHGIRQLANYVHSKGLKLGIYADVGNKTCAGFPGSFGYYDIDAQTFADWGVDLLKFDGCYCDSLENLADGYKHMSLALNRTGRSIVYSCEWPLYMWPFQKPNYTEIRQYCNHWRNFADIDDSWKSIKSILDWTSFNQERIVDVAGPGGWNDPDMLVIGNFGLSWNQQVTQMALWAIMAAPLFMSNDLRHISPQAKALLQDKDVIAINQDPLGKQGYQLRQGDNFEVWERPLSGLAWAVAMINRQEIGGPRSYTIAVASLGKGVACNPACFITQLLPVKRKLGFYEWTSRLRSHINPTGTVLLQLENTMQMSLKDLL
# The depositor's hits bear a star; u = inconclusive; x = no result given.
1: Cc1ccc(-c2n[nH]c(=S)n2/N=C/C=C/c2ccccc2[N+](=O)[O-])cc1
2: CCC1NC(=O)c2cc(S(N)(=O)=O)c(Cl)cc2N1 (stereo unspecified)
3: CC(Sc1nc(N)cc(=O)[nH]1)C(=O)Nc1cccc(Cl)c1 (stereo unspecified)
4: CCCCC(c1nnnn1C1CCCC1)N1CCN(C2CCCC2)CC1 (stereo unspecified)
5: Cc1ccccc1CS(=O)(=O)c1ccc(C(=O)N2CCOCC2)cc1[N+](=O)[O-]
6: O=C(NCCc1ccc(S(=O)(=O)N2CCCC2)cc1)c1cccs1
7: CCn1nnc(NC(=O)c2cccnc2)n1
8: COC(=O)c1ccc(OCC(O)CN(CC(C)C)CC(C)C)cc1 (stereo unspecified)
9: O=C1C(=O)N(CCN2CCOCC2)C(c2ccccc2)/C1=C(\O)c1ccc2c(c1)OCCO2 (stereo unspecified)
10: O=C(CCc1nc(-c2ccccc2)no1)NCc1ccccc1CN1CCOCC1
entry no. | 1 | 2 | 3 | 4 | 5 | 6 | 7 | 8 | 9 | 10
GLA inh pH 4.5 | -2 | x | 1 | 2 | x | -6 | 2 | u | x | x
Rango-impB inh | 4.1% | 1.0% | 3.9% | 0.5% | u | -1.2% | 0.8% | -0.6% | 0.3% | 4.6%
Rango release inh | -4% | 0% | -10% | 2% | 18% | -1% | 3% | 10% | 5% | 5%
miR-21 reporter | -6% | x | -4% | -2% | 22% | -1% | -3% | -4% | -4% | x

# Reformatted as tab-separated lines: entries from further up
no.	Molecule	GLA inh pH 4.5	Rango-impB inh	Rango release inh	miR-21 reporter
4	CCCCC(c1nnnn1C1CCCC1)N1CCN(C2CCCC2)CC1 (stereo unspecified)	2	0.5%	2%	-2%
5	Cc1ccccc1CS(=O)(=O)c1ccc(C(=O)N2CCOCC2)cc1[N+](=O)[O-]	x	u	18%	22%

# Remaining list, next part.
11: COC(=O)c1ccc(NC(=O)CSCc2ccccc2C)cc1
12: O=C(CSc1ncn(-c2ccccc2)n1)Nc1ccc2c(c1)OCCO2
13: CCOc1ccc2nc(N(CCCN(C)C)C(=O)c3ccc4c(c3)CCCC4)sc2c1
14: COC(=O)C1=C(C)N(CCc2c[nH]c3ccc(OC)cc23)C(=O)C1
15: COc1ccc(OC)c2sc(N(CCN(C)C)C(=O)/C=C/c3cccs3)nc12
16: O=C1CCC([N+](=O)[O-])C(c2cccc(Br)c2)N1 (stereo unspecified)
17: NC(=O)C1(N2CCCCC2)CCN(C(=S)Nc2cccc(Cl)c2)CC1
18: O=C(NCC1CC1)Nc1cccc(Cl)c1
19: O=C(NNc1ccccc1[N+](=O)[O-])Nc1ccc(F)cc1
20: CC(=O)Nc1c(O)c2ccccc2[nH]c1=O
entry no. | 11 | 12 | 13 | 14 | 15 | 16 | 17 | 18 | 19 | 20
GLA inh pH 4.5 | -2 | 3 | x | 2 | x | 5 | -3 | x | 2 | 1
Rango-impB inh | -0.4% | -2.6% | 3.5% | 0.3% | -1.2% | 2.1% | 1.5% | 0.0% | 1.0% | 2.9%
Rango release inh | 2% | 11% | 4% | -6% | -3% | -8% | 9% | -7% | -12% | 5%
miR-21 reporter | -22% | -14% | -10% | 1% | 15% | 3% | 2% | -38% | -13% | -3%

21: S=c1[nH]nc(-c2ccco2)n1/N=C/c1cccc(Cl)c1
22: O=C(NCc1cccs1)C1CCCN(S(=O)(=O)c2ccc(Br)s2)C1 (stereo unspecified)
23: CC(C)c1ccccc1NC(=O)COc1ccc2c(=O)c(Oc3ccc4ccccc4c3)coc2c1
24: COc1c(F)c(F)c(C(=O)O)c(Nc2ccccc2C)c1F
25: COC(=O)c1sc(SC)c(-c2ccon2)c1C
26: Fc1ccc(N=C2NN=C(c3cc(F)ccc3F)CS2)cc1
27: COc1cccc(C2CCCCN(C)C2=O)c1 (stereo unspecified)
28: CC(C)CC(=O)N=C1SC2CS(=O)(=O)CC2N1Cc1ccccc1Cl (stereo unspecified)
29: CC(C)c1ccc(NC(=O)COC(=O)CC2CCCC2)cc1
30: N#Cc1ccc(N/N=C/c2cn(-c3ccccc3)nc2-c2ccccc2)c([N+](=O)[O-])c1
entry no. | 21 | 22 | 23 | 24 | 25 | 26 | 27 | 28 | 29 | 30
GLA inh pH 4.5 | -5 | 4 | -4 | -7 | -19 | -1 | -15 | 0 | x | -4
Rango-impB inh | 7.0% | 3.3% | x | 4.0% | 1.8% | -2.1% | 0.2% | -1.3% | -3.4% | -0.4%
Rango release inh | 27% | 6% | x | -6% | -9% | 2% | 13% | 15% | 15% | 29%
miR-21 reporter | 1% | -5% | 24% | -2% | 1% | -3% | -1% | -3% | x | 1%

31: Fc1ccc(-c2csc(-c3ccncc3)n2)cc1
32: Cc1cc(/C=N/NC(=O)CC2(C)OCCO2)c(C)n1-c1ccc(Cl)c(Cl)c1
33: CC(/C=C/c1ccco1)=N/NC(=O)c1ccccc1Cl
34: CCc1nc2oc3ccc(C)cc3c(=O)c2cc1C(=O)OC
35: COc1cc(OC)cc(C(=O)NNC(=O)c2cc3ccccc3cc2O)c1
36: N#C/C(=C\c1ccc(N2CCOCC2)o1)c1nc2ccccc2[nH]1
37: N#Cc1c(-c2ccc(Cl)cc2)cc(-c2ccccc2)nc1SCC(=O)O
38: O=C(N/N=C/c1cccc([N+](=O)[O-])c1)c1cccs1
39: CC(C)(C)C1CCC(C(=O)Nc2ccccc2)CC1 (stereo unspecified)
40: COc1ccc(S(=O)(=O)NC(C)C(=O)NCc2ccncc2)cc1C (stereo unspecified)
entry no. | 31 | 32 | 33 | 34 | 35 | 36 | 37 | 38 | 39 | 40
GLA inh pH 4.5 | 5 | 3 | -18 | x | x | 3 | x | 10 | -4 | x
Rango-impB inh | 0.0% | 0.2% | -1.1% | 1.1% | 2.4% | u | u | 0.0% | 2.3% | 0.0%
Rango release inh | 6% | -6% | 0% | -12% | -7% | u | -23% | -4% | 11% | 12%
miR-21 reporter | -42% | -4% | -34% | -28% | 6% | -26% | -1% | -50% | -10% | 3%

41: CCCNC(=O)c1ccc(COc2ccc(C)cc2)o1
42: CC(CN1CCCCC1)OC(=O)c1ccco1 (stereo unspecified)
43: O=C(NCc1cccnc1)C(=O)c1c[nH]c2ccccc12
44: Cc1ccccc1NC(=O)c1ccc(NC(=O)c2ccco2)cc1
45: COc1cc(/C=N/O)ccc1Oc1ccc([N+](=O)[O-])cc1[N+](=O)[O-]
46: CCOC(=O)NN1C(=O)c2ccccc2NC1c1ccc(OC)cc1 (stereo unspecified)
47: COc1ccc(C2C(C(N)=O)=C(C)Nc3nc(CCCO)nn32)cc1OC (stereo unspecified)
48: CCCCN(CC)CCNC(=O)c1cc2c(=O)[nH]c3ccccc3c2s1
49: CC1=C(C(=O)N2CCOCC2)C(c2cccs2)NC(=O)N1 (stereo unspecified)
50: COc1ccc(S(=O)(=O)N(C)C[C@H]2Oc3ccc(NS(=O)(=O)c4ccccc4)cc3C(=O)N([C@H](C)CO)C[C@@H]2C)cc1
entry no. | 41 | 42 | 43 | 44 | 45 | 46 | 47 | 48 | 49 | 50
GLA inh pH 4.5 | x | x | x | 7 | 3 | 2 | x | x | -4 | x
Rango-impB inh | -2.2% | -2.3% | 2.6% | -0.2% | 5.3% | 5.2% | -2.2% | u | -3.8% | -5.7%
Rango release inh | -13% | u | 12% | u | 2% | 11% | 17% | 6% | 10% | 0%
miR-21 reporter | -7% | -1% | -2% | -33% | 5% | -11% | -2% | -1% | 0% | x

51: CCOc1ccc2[nH]c(=O)c(CN(CCO)C(=O)c3ccccc3F)cc2c1
52: CSc1nc2ccc3nc(NC(=O)c4ccccc4)sc3c2s1
53: CC/C=C(\NC(C)=O)c1ccccc1
54: CC(Sc1ccc(Cl)cc1)C(=O)NCc1ccc2c(c1)OCO2 (stereo unspecified)
55: Cc1cccc(C(=O)Nc2ccc(C(=O)/C=C/c3ccncc3)cc2)c1
56: Cc1ccc(C)c(N2CCN(S(=O)(=O)c3ccc4c(c3)CC(C)N4C(=O)C3CC3)CC2)c1 (stereo unspecified)
57: Cc1cc(C)nc(Nc2n[nH]c(COc3cccc4ccccc34)n2)n1
58: Cc1cc(CNC(=O)C(C)n2nc(C)c([N+](=O)[O-])c2C)c2ccccc2n1 (stereo unspecified)
59: Cc1cc([N+](=O)[O-])ccc1NC(=O)C1CCCO1 (stereo unspecified)
60: CNC(=O)NC(=O)CSc1nc2cc(C(=O)OC)ccc2c(=O)n1-c1ccccc1
entry no. | 51 | 52 | 53 | 54 | 55 | 56 | 57 | 58 | 59 | 60
GLA inh pH 4.5 | 8 | 9 | x | -3 | x | x | -14 | -1 | 3 | -4
Rango-impB inh | -5.0% | 0.2% | 4.3% | 0.6% | 2.3% | -3.9% | -0.3% | 0.9% | -0.1% | -0.5%
Rango release inh | 1% | u | 0% | 22% | -3% | -8% | -3% | -8% | 28% | 8%
miR-21 reporter | -14% | -27% | x | -5% | u | -3% | -1% | -2% | -7% | 0%

61: O=C1CC(c2ccc3c(c2)OCCO3)Oc2ccccc21 (stereo unspecified)
62: Cn1c(CC(=O)NNC(=O)c2ccc(F)cc2F)nc2ccccc21
63: O=C(Nc1ccccc1)O[C@@H]1C[C@H]2CCCC(=O)N3CC[C@@H](C1)[C@@H]23
64: Cc1ccc(C(=O)Nc2ccc(C)c(S(=O)(=O)N3CCOCC3)c2)c(C)c1
65: CCOc1ccccc1NC(=O)Nc1ccc2c(c1)CCC2
66: CN(/N=C/c1ccncc1)c1cnn(-c2ccc(F)c(Cl)c2)c(=O)c1Cl
67: C/C(=N\NC(=O)c1ccccc1O)c1ccc(NC(=O)Cc2ccccc2)cc1
68: CCOC(=O)c1cn(-c2nc(-c3ccc(Cl)cc3)cs2)c2c(F)c(N3CC(C)OC(C)C3)c(F)cc2c1=O (stereo unspecified)
69: CCC(C)(C)n1nnnc1CN(Cc1cc2cc(OC)ccc2[nH]c1=O)C1CCCC1
70: Clc1ccc(OCCN2CCOCC2)cc1Cl
entry no. | 61 | 62 | 63 | 64 | 65 | 66 | 67 | 68 | 69 | 70
GLA inh pH 4.5 | x | x | x | x | x | -3 | x | 10 | 5 | -5
Rango-impB inh | -4.1% | 2.8% | -3.5% | -1.2% | 5.4% | 1.7% | 0.6% | x | -2.9% | -1.1%
Rango release inh | 7% | 2% | -9% | 0% | 0% | 21% | -12% | x | -3% | 1%
miR-21 reporter | -63% | x | x | -1% | -41% | -27% | -20% | -4% | -5% | -20%

# In the list so far, eleven contain an aryl methoxy group:
14: COC(=O)C1=C(C)N(CCc2c[nH]c3ccc(OC)cc23)C(=O)C1
15: COc1ccc(OC)c2sc(N(CCN(C)C)C(=O)/C=C/c3cccs3)nc12
24: COc1c(F)c(F)c(C(=O)O)c(Nc2ccccc2C)c1F
27: COc1cccc(C2CCCCN(C)C2=O)c1 (stereo unspecified)
35: COc1cc(OC)cc(C(=O)NNC(=O)c2cc3ccccc3cc2O)c1
40: COc1ccc(S(=O)(=O)NC(C)C(=O)NCc2ccncc2)cc1C (stereo unspecified)
45: COc1cc(/C=N/O)ccc1Oc1ccc([N+](=O)[O-])cc1[N+](=O)[O-]
46: CCOC(=O)NN1C(=O)c2ccccc2NC1c1ccc(OC)cc1 (stereo unspecified)
47: COc1ccc(C2C(C(N)=O)=C(C)Nc3nc(CCCO)nn32)cc1OC (stereo unspecified)
50: COc1ccc(S(=O)(=O)N(C)C[C@H]2Oc3ccc(NS(=O)(=O)c4ccccc4)cc3C(=O)N([C@H](C)CO)C[C@@H]2C)cc1
69: CCC(C)(C)n1nnnc1CN(Cc1cc2cc(OC)ccc2[nH]c1=O)C1CCCC1
entry no. | 14 | 15 | 24 | 27 | 35 | 40 | 45 | 46 | 47 | 50 | 69
GLA inh pH 4.5 | 2 | x | -7 | -15 | x | x | 3 | 2 | x | x | 5
Rango-impB inh | 0.3% | -1.2% | 4.0% | 0.2% | 2.4% | 0.0% | 5.3% | 5.2% | -2.2% | -5.7% | -2.9%
Rango release inh | -6% | -3% | -6% | 13% | -7% | 12% | 2% | 11% | 17% | 0% | -3%
miR-21 reporter | 1% | 15% | -2% | -1% | 6% | 3% | 5% | -11% | -2% | x | -5%

# Screens as filed in PubChem.

# This is a subset, so the mix of outcomes need not match the whole.
